TRPML1 ag: agonists of human TRPML1 channel | 0.12% of 410,000 active | activation, % (no concentration beside the values) | TRPML1-expressing cells, Ca2+ dye fluorescence, FDSS; host cell line not named in the record; reference of the full effect not given here; in the data active = activation above about 50%; inconclusive = about 30% to 50%; inactive = below about 30%; note: 0% is about no effect; the text of the record puts the active cut at 80%
Target sequence (Q9GZU1 whole entry, looked up): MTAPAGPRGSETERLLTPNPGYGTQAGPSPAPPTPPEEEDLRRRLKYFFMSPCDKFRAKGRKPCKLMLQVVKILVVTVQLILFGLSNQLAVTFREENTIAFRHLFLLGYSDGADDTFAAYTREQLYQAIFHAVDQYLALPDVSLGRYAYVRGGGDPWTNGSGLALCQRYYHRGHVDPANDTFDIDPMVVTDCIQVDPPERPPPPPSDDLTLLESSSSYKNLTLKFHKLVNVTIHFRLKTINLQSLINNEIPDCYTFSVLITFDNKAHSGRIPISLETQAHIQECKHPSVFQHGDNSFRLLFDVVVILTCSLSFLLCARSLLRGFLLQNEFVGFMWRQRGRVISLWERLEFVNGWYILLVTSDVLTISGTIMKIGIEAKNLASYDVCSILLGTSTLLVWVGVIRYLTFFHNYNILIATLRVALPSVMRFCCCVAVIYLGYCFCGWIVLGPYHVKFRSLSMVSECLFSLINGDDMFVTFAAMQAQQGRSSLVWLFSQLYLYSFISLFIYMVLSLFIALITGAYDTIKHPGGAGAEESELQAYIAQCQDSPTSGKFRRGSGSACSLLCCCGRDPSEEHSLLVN
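Calcium fluorescence on an FDSS kinetic reader gave the read-out. Tet-induced TRPML1-DL cells were plated overnight, dye-loaded (Ca8 with quencher, 45-90 min, room temperature, dark), then read 110 s after compound addition, and again 110 s after 4uM final 54-4 (EC80).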
D2 agonist: human D2 receptor agonism in beta-arrestin assay | P14416 | DiscoveRx PathHunter D2 beta-arrestin, luminescence, 90 min; 100% = 57 uM dopamine signal | activation, % (concentration not given with the values) | 0.084% of 360,000 active | AID 624465; in the data active = activation above about 40%; inconclusive = about 15% to 40%; inactive = below about 15%; note: compound concentration not given in the record; the text of the record calls up to 30% inactive
Target sequence (P14416 whole entry, looked up): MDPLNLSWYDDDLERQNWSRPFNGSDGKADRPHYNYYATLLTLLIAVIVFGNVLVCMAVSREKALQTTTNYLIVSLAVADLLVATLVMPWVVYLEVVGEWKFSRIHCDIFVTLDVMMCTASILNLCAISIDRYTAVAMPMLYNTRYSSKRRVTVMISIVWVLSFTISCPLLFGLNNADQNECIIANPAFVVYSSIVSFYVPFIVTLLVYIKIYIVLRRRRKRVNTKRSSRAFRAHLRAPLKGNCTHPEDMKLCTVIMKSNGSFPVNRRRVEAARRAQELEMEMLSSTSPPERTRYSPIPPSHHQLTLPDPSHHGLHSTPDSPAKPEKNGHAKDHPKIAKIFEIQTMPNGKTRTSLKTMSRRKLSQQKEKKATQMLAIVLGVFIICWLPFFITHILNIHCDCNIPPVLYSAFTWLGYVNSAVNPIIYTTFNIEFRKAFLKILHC
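Agonist mode: compounds alone added to overnight-plated D2 PathHunter cells for 90 min at 37 C, with 57 uM final dopamine (EC100) defining full response. Beta-arrestin recruitment detected by chemiluminescent reagent, read after 1 h at ambient temperature.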
CtBP-E1A blk: blocks the CtBP interaction with E1A | 0.49% of 340,000 active | AlphaScreen GST-E1A/His-CtBP binding, 1536-well; active compounds read low; control for the full effect not named in the record | activity change, % (no concentration beside the values); in the data active means activity change below about -65%; inconclusive means about -30% to -65%; inactive means above about -30%; note: % is set by controls: 0 for no effect and ±100 for the full control effect
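Steps: dispense buffer (Tris pH 8.0, NaCl 300 mM, TCEP 1 mM, BSA, Tween 20); add 5X protein mix (GST-E1A, His-CtBP, 125 nM each); pin 23 nL compound; 2 h at 37 °C, dark; add 5X beads (50 ug/mL); 1 h; read.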
PINK1 modulator: PINK1 expression modulation. AID 624263. 0.2% of 410,000 active. PINK1 immunofluorescence, high-content cytometry, 24 h. Potency, µM (doses to about 76.6 µM), for inactives: at the top dose activation (PINK1 increase), usual class: activators; active = well fitted activation curve with a large enough effect; inconclusive = small, poorly fitted or top-dose-only effect; inactive = flat fitted curve, though single readings scatter; cell line not stated here;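 note: potency is the fitted concentration of half-maximal effect; % of control where 0% means no effect; nearly all actives have a fitted effect of over 65% in size; a mitochondrial uncoupler was the plate control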
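PINK1 protein level read as immunofluorescence by microplate cytometer in a fixed, stained stable cell line after 24 h exposure to five compound concentrations, with CCCP as control.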
D2 potentiator: potentiates the human D2 dopamine receptor allosterically. 0.23% of 360,000 active. AID 624464. P14416. potentiation, % (no concentration beside the values). DiscoveRx D2 beta-arrestin cells, luminescence, 90 min; 100% = 57 uM dopamine signal; active = potentiation of 50% or more; inconclusive = 30% to 50%; inactive = 30% or less;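 note: compound concentration not given in the record; tested on top of an EC20 dose of dopamine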
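D2 cells co-treated with compound plus 50 nM dopamine (EC20) for 90 min at 37 deg C to detect potentiation. Beta-arrestin recruitment was read as enzyme-fragment luminescence after 1 h at ambient temperature. Full response was set by 57 uM dopamine.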
Six1-Eya2 blk: inhibitors of human Six1/Eya2 interaction; Q15475+O00167; AlphaScreen GST-Six1/His-Eya2 binding, biochemical; active compounds read low; control for the full effect not named in the record; activity change, % (no concentration beside the values); AID 651725; 0.56% of 360,000 active; in the data active = activity change below about -65%; inconclusive = about -30% to -65%; inactive = above about -30%; note: % is set by controls: 0 for no effect and ±100 for the full control effect
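Six1/Eya2 binding was read as AlphaScreen signal after compounds were pinned into GST-Six1 plus His-tagged Eya2 (5X stock 250/500 nM) in pH 8.0 Tris/NaCl/TCEP buffer, beads added, then incubated 1 h, 37 C, dark.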
Numbers without * were called inactive; . = no result given; & = joins results of further samples; [ ] = dose if it differs, or a comment.

SMILES | TRPML1 ag | D2 agonist | CtBP-E1A blk | PINK1 modulator | D2 potentiator | Six1-Eya2 blk
CCN(C(=O)CCNC(=O)Cn1cnc2ccccc2c1=O)c1cccc(Cl)c1 | -0.4&-0.4 | -4.3 | -6 | 1.4%&4.6% | -5 | -1
CCN1C(=O)[C@H]2[C@@H](c3ccc(C)cc3)N3C(=O)N(c4ccccc4)C(=O)[C@@]3(C)[C@H]2C1=O | -0.2 | -2.1 | 0 | 0.0% | -11 | 10
CC(=O)N1CCCc2cc(S(=O)(=O)CCC(=O)Nc3cccc(C)c3C)ccc21 | -0.1 | -1.2 | 4 | 0.1% | -7 | 4
CSc1nc2sc(-c3ccccc3)cc2c(=O)n1N | 0.3 | -4.5 | 6 | -0.2% | -1 | 1
O=C1c2ccccc2C(=O)N1CC(O)Cn1nnc2ccccc21 (configuration not stated) | -0.1 | -0.5 | 3 | -0.5%[38.3 µM] | -1 | 3
CCn1c(SCC(=O)Nc2nccs2)nnc1-c1ccc(C)cc1 | 0.7 | 0.0 | 2 | -0.2% | -4 | -2
O=C(CN1CCN(c2ccc([N+](=O)[O-])cc2)CC1)Nc1ccccn1 | 0.7 | -2.5 | -5 | -1.5% | 3 | 17
CCO[C@H]1OC(C(=O)Nc2ccccc2)=C[C@@H](c2coc3ccccc3c2=O)[C@@H]1CCCO | -0.4 | -2.2 | 3 | 0.4% | -5 | 1
O=C(NCc1ccc2c3c(cccc13)C(=O)N2)c1cccs1 | 0.1 | 1.9 | -30 | 1.3% | -4 | -8
NCC1OC(n2cnc3c(N)ncnc32)CC1O (configuration not stated) | 0.7 | -2.5 | 2 | 0.5% | 2 | 7
Cc1cccc(NC(=O)C2CCN(S(=O)(=O)c3ccc4c(c3)OCCO4)CC2)n1 | 0.2 | -6.3 | -16 | -0.2% | -16 | 6
CNC(=O)c1sc(N2N=C3/C(=C/c4ccccc4)CCCC3C2c2ccccc2)nc1C (configuration not stated) | 16 | -1.2 | 18 | 0.1%[38.3 µM] | 4 | 19
CCC(=O)N(C)C(c1ccccc1Cl)c1nnnn1-c1c(C)cccc1C (configuration not stated) | 2.9 | -0.2 | 1 | 3.4% | 1 | 0
COc1ccc(NC(=O)CSc2n[nH]c(C(C)C)n2)c([N+](=O)[O-])c1 | -0.3 | -2.1 | -12 | -2.5% | 3 | 9
CN(CC(=O)Nc1ccccc1Cl)C(=O)COC(=O)c1cc([N+](=O)[O-])ccc1N1CCOCC1 | 0.2 | -3.7 | -28 | 1.3% | -19 | -19
CC(C)c1ccc(/C=N/NC(=O)CCNC(=O)c2ccccc2)cc1 | 1.5 | -2.8 | 6 | 2.0% | -4 | -1
O=C(CN1C(=O)C2(OCCCO2)c2ccccc21)NCCc1ccccc1 | -0.7 | -3.2 | 4 | 4.7%[38.3 µM] | -17 | 0
Cc1ccc(OCCn2cc(/C=C3\C(=O)NN(c4ccccc4)C3=O)c3ccccc32)cc1 | 1.5 | -0.2 | -3 | 4.0% | -1 | 1
O=C(CCCN1C(=O)NC2(CCCC2)C1=O)Nc1ccc(F)cc1 | 1.2 | -4.4 | 2 | -0.3% | -7 | 3
O=C(N/C(=C\c1ccc([N+](=O)[O-])cc1)C(=O)N1CCCCC1)c1ccco1 | 1.0 | -3.8 | 0 | -0.3% | -2 | 6
O=C(COC(=O)/C=C/c1cccc(F)c1)NC1CCCC1 | 0.3 | -6.0 | 1 | 0.6% | -15 | 4
COc1ccc(NC(=O)N2CCCCCC2)c(OC)c1 | -0.2 | -1.3 | -8 | 1.1% | -13 | 9
CCOC(=O)c1sc(NC(=S)NC(=O)c2ccccc2)c(C(=O)OCC)c1C | 0.6 | 0.3 | 2 | 7.2% | -10 | -4
C=C[C@@H]1c2c(F)cccc2N(S(=O)(=O)c2ccc(C)cc2)[C@H](c2ccc(C(=O)OC)cc2)C1(C#N)C#N | 0.4&0.8 | -1.5 | 2 | 6.2% | -1 | -11
CCOCCCNC(=O)c1c(N)n(-c2ccc3c(c2)OCO3)c2nc3ccccc3nc12 | 0.6 | -6.4 | -2 | 4.1% | -5 | 3
COc1ccc(Oc2c(OC)cc([N+](=O)[O-])c3ncccc23)cc1 | 2.5 | 2.3 | -4 | 0.3% | 12 | -14
N#Cc1c(NC(=O)CSc2nc3ccccc3s2)sc2c1CCCC2 | 0.1 | -4.3 | 7 | 22% | -11 | 5
CCN(C(=O)c1ccco1)c1nc(-c2ccc(OC)cc2)cs1 | 0.4 | -1.7 | . | -0.6% | -24 | 0
Cc1ccc(CNC(=O)CSc2c3c(nc4ccc(Cl)cc24)CCCC3)o1 | 1.5 | -2.6 | 3 | 8.5% | -17 | 0
CC1=NN(c2ccccc2)C(=O)C1N=Nc1ccc(S(N)(=O)=O)cc1 (configuration not stated) | 2.1 | 1.1 | 10 | 6.4% | -5 | 1
CCOc1ccc(-c2nc(CSc3nnc(N)s3)cs2)cc1OC | 1.4 | 1.3 | -18 | -3.2% | -12 | -9
COc1ccc2c(CN(C)Cc3ccccc3)cc(=O)oc2c1 | 2.0 | -5.0 | 9 | -0.3% | -8 | 5
O=C(CNC(=O)c1ccc(Cl)cc1Cl)OCC(=O)N1CCN(c2ccccc2)CC1 | 0.6 | -0.2 | -6 | 0.3% | 6 | 3
Cc1cccc(NC(=O)CNC(=O)c2ccccc2Cl)n1 | -0.2 | -2.2 | 4 | 1.8% | -16 | 1
COC(=O)C(C)NC(=O)C12CC3CC(CC(C3)C1)C2 (configuration not stated) | -0.6 | -0.9 | 9 | -1.5% | -8 | 6
Cc1ccc([C@@H]2CC=C(C(=O)O)CN2S(=O)(=O)c2ccccc2C)cc1 | -0.3 | -5.1 | . | 1.5% | -11 | 0
CC(=O)N1CCSc2ccc(S(=O)(=O)NCc3ccccc3)cc21 | -0.8 | -3.5 | 7 | 1.5% | -4 | 0
Cc1cccc(C(C(=O)NC2CCCC2)N(Cc2cccnc2)C(=O)c2csnn2)c1 (configuration not stated) | 0.1 | -2.9 | 7 | -2.6% | -7 | 3
CC1CCC/C(=C\Nc2ccccc2C(=O)O)C1=O (configuration not stated) | -0.6 | -1.6 | 5 | 4.8%[38.3 µM] | -1 | 2
CCC(C)C(=O)Nc1nnc(SCC(=O)NC(C)(C)C)s1 (configuration not stated) | -0.1 | -1.5 | . | 0.5% | -2 | 8
CCOC(=O)Cc1csc(N/C(=N/S(=O)(=O)c2ccc(Cl)cc2)c2ccccc2)n1 | 1.7 | -1.5 | -10 | 0.2% | -5 | -8
Cc1cccc(N(CC(=O)N/N=C/c2ccc(OCC(=O)NCc3ccco3)cc2)S(C)(=O)=O)c1C | 1.5 | 1.2 | -10 | 2.1% | 4 | -6
CCN(CC)CC(O)CN1C(=O)NC(C)(C)C1=O (configuration not stated) | 0.4 | -0.4 | -17 | -0.8% | 0 | -14
CCOC(=O)CCCNc1ccc([N+](=O)[O-])cc1[N+](=O)[O-] | -0.9 | -4.6 | -7 | 2.9% | 1 | 6
O=C(NCCCN1CCOCC1)C(=O)N/N=C/c1ccc(F)cc1 | 1.4 | -3.9 | -17 | 1.5% | -5 | -2
Cc1cccc(CN2CCOCCS2(=O)=O)c1 | -0.8 | -4.0 | 8 | 1.0% | -11 | 2
COc1cc2c(cc1OC)CN(C1CCCN(Cc3cccc(C(C)=O)c3)C1)CC2 (configuration not stated) | 0.6 | 0.9 | 8 | 0.4% | -2 | -8
CCCCC(=O)Nc1ccc(C(=O)NNC(=O)c2cccs2)cc1 | -0.3 | -3.7 | 14 | 1.2% | -2 | 7
CCN(CCn1cccn1)C(=O)c1cccc(OC2CCN(S(C)(=O)=O)CC2)c1 | -0.4 | -1.1 | -1 | 2.2% | 13 | 6
CCOC(=O)N1CCN(CC(O)COc2cc(C)cc(C)c2)CC1 (configuration not stated) | 1.5 | 0.7 | -7 | 3.1% | -5 | 3
CCOc1ccc(C(=O)N2CCN(c3ccccc3)CC2)cc1 | -0.3 | 2.6 | 7 | -1.7% | -8 | 4
N/C(=N\OC(=O)Nc1ccccc1)c1ncc(C(F)(F)F)cc1Cl | 0.6 | 11 | 2 | 1.1% | 21 | 4
COc1ccc(CNC(=O)c2cc3ccccc3o2)cc1OC | -0.8 | 2.1 | 19 | 1.0% | -3 | 3
CC1(C)CC(=O)C(C(=O)/C=C/NCCc2ccccc2)C(=O)C1 | 0.1 | -1.0 | 0 | 7.5% | -12 | -6
CCN1C(=O)C(CC(=O)Nc2ccc(OC)cc2)N(CCN2CCOCC2)C1=S (configuration not stated) | 3.8 | -5.7 | 11 | 1.1% | -7 | 4
COc1ccc(CCNC(=O)COc2cc(C)cc3oc(=O)cc(C)c23)cc1OC | -1.1 | -0.5 | 0 | 2.1% | 1 | 18
COc1cc(/C=C2\SC(=S)N(CCC(=O)NC3CCCC3)C2=O)cc(OC)c1OC | 0.1 | -2.9 | -17 | 2.3% | -5 | -3
Cc1nnsc1NC(=O)OCc1ccc(C(F)(F)F)cc1 | 0.6 | -2.2 | 18 | 0.8% | -5 | -22
CNC(=S)N1CCc2cc(OC)c(OC)cc2C1 | 1.0 | -1.1 | 5 | -0.3% | -4 | 6
COc1cccc(NC(=O)n2nc(N)cc2-c2ccc(Cl)cc2)c1 | -0.7 | 1.2 | -4 | 0.0% | -2 | -11

Fetched one by one from the entries so far, 7 records:
SMILES | TRPML1 ag | D2 agonist | CtBP-E1A blk | PINK1 modulator | D2 potentiator | Six1-Eya2 blk
Cc1cccc(C(C(=O)NC2CCCC2)N(Cc2cccnc2)C(=O)c2csnn2)c1 (configuration not stated) | 0.1 | -2.9 | 7 | -2.6% | -7 | 3
O=C(COC(=O)/C=C/c1cccc(F)c1)NC1CCCC1 | 0.3 | -6.0 | 1 | 0.6% | -15 | 4
CCC(=O)N(C)C(c1ccccc1Cl)c1nnnn1-c1c(C)cccc1C (configuration not stated) | 2.9 | -0.2 | 1 | 3.4% | 1 | 0
O=C(CNC(=O)c1ccc(Cl)cc1Cl)OCC(=O)N1CCN(c2ccccc2)CC1 | 0.6 | -0.2 | -6 | 0.3% | 6 | 3
CC1CCC/C(=C\Nc2ccccc2C(=O)O)C1=O (configuration not stated) | -0.6 | -1.6 | 5 | 4.8%[38.3 µM] | -1 | 2
Cc1ccc(CNC(=O)CSc2c3c(nc4ccc(Cl)cc24)CCCC3)o1 | 1.5 | -2.6 | 3 | 8.5% | -17 | 0
O=C(CCCN1C(=O)NC2(CCCC2)C1=O)Nc1ccc(F)cc1 | 1.2 | -4.4 | 2 | -0.3% | -7 | 3

(list continues)
SMILES | TRPML1 ag | D2 agonist | CtBP-E1A blk | PINK1 modulator | D2 potentiator | Six1-Eya2 blk
COc1cccc(-c2cc(C(=O)O)c3cc4ccccc4cc3n2)c1OC | 0.0 | -1.8 | -3 | -1.3% | -8 | 1
COc1ccc(S(=O)(=O)n2ccc(-c3ccc(OCCN(C)c4ccccn4)cc3)n2)cc1 | 0.0 | -3.3 | -4 | -1.5% | 18 | -8
CCCCCCNC(=O)CCCCCNS(=O)(=O)c1ccc(Br)cc1 | 0.8 | -0.1 | -1 | 0.2% | -9 | -3
COc1ccccc1-n1cc(CN2CCN(C3CCCCC3)C(CCO)C2)cn1 (configuration not stated) | -0.2 | -4.1 | 13 | 3.4% | -16 | 21

Compound activity: PubChem BioAssay, National Center for Advancing Translational Sciences (NCATS)
